# Assay outcomes: PubChem, several laboratories
# Mtb H37Rv = M. tuberculosis H37Rv growth inhibitors, H37Rv strain (AID 1626) | inhibition, % at 10 µM; hits with a dose series show IC50 in µM | M. tuberculosis H37Rv growth inhibition; higher % means a stronger effect | actives 0.95% (n = 220,000);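 active = confirmed in a dose series; inconclusive = inhibition above 80% but not taken into the dose series; inactive = below 80% or under 30% at every dose of the series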;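 also: bacteria incubated seven days before Alamar blue readout; 0% = bacteria only wells and 100% = bacteria with antibiotic wells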
# Mtb betalactam = beta-lactam sensitization of Mtb H37Rv, H37Rv; actives 0.27% (n = 330,000); M. tuberculosis H37Rv growth with meropenem, percent inhibition; hits of this screen are not shown here; inhibition, % at 25 µM;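 active = about 74% or more and at least 40 points above the plate without the antibiotic, then above 30% in a dose series; inconclusive = first-round hits that could not be retested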;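 also: growth measured after seven days incubation then overnight dye step; 0% = bacteria only wells and 100% = bacteria with antibiotic; twin plates without the antibiotic show which effects depend on it; some results filed as inactive read as strong as hits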
# RecA intein inh = Mtb RecA intein splicing inhibitors, primary screen, biochemical, fluorescence, HTS | Protein RecA (Mycobacterium tuberculosis (strain ATCC 25618 / H37Rv)), P9WHJ3 | cell-free RecA intein splicing | inhibition, %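 (about 9 µM by stock and volumes)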 | actives 0.75% (n = 290,000); in the data active = inhibition above about 30%; inconclusive = no clear call, values can overlap the other calls;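 also: 0% = vehicle wells and 100% = reference inhibitor control wells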
# Target sequence (P9WHJ3 whole entry, looked up): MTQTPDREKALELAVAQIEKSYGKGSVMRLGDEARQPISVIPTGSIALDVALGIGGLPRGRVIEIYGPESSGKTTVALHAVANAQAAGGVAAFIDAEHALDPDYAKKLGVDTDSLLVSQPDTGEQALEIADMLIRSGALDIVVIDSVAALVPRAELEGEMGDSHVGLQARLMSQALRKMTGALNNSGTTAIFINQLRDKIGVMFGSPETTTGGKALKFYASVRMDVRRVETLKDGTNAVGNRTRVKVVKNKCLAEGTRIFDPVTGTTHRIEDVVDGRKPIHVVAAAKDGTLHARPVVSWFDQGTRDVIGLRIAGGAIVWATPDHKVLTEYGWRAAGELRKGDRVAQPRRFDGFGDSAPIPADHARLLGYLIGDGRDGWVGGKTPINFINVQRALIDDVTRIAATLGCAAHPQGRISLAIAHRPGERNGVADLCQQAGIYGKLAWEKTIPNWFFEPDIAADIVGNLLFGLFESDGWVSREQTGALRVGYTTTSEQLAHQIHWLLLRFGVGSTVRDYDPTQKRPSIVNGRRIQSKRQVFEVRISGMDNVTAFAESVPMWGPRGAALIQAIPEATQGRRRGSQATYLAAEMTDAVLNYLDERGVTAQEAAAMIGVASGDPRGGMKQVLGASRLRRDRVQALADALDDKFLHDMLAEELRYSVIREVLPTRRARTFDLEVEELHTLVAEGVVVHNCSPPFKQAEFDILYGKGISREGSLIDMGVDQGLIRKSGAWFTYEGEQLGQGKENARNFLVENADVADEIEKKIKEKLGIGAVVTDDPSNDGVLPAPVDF
# YopH PTP inh = YopH tyrosine phosphatase inhibitors, primary screen, biochemical, fluorescence Ex485/Em525; AID 898, 2007; inhibition, %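 (about 10 µM by stock and volumes)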; actives 0.16% (n = 140,000); YopH tyrosine phosphatase [Yersinia enterocolitica];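 active = inhibition of 50% or more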;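 also: controls were vehicle for no effect and minimum signal wells for full effect; inactives centre near -20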
# Arbovirus anti = antivirals against arbovirus infection, primary screen, cell-based, full library, 10K replicate subset; arbovirus infection cell-based antiviral screen; AID 1251, 2008; inhibition, % at 10 µM; actives 0.37% (n = 200,000);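 active = inhibition from about 30%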;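 also: bluetongue infection of BSR cells; cell survival read as ATP light after 72 h; 0% = infected wells without compound and 100% = uninfected wells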
# Arbovirus anti repeat = recorded beside Arbovirus anti, whose call it bears; inhibition, %; measured here: 10K subset replicate screen; many hits read low in the repeat;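 first of two repeat runs on a subset; 0% = infected and 100% = uninfected wells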
# Numbers without * were called inactive; ? = inconclusive; . = not tested or not shown. Only part of the results is shown; count on the stated rates, not on these rows.
SMILES,Mtb H37Rv,Mtb betalactam,RecA intein inh,YopH PTP inh,Arbovirus anti,others
COc1ccc(C(=O)CSc2nc3ccccc3n2CC(=O)c2ccccc2)cc1,-3%,0,6.6,-35,11,
CCOC(=O)C1=C(C)NC(=O)NC1c1ccc(OC)c(CN2CCOCC2)c1 (stereo not given),1%,-1,0.2,2,-5,
COC(=O)c1cccc(NC(=O)CCNC(=O)c2ccc([N+](=O)[O-])cc2)c1,-7%,-5,-1.3,-25,1,
Oc1ccc(N2CCN(C(c3cccnc3)c3nnnn3Cc3ccccc3)CC2)cc1 (stereo not given),-9%,17,-6.3,10,-1,
CCOc1ccc(N2C(=O)CC(N3CCN(C(=O)c4ccco4)CC3)C2=O)cc1 (stereo not given),0%,-10,-0.2,-32,3,
O=C(Cn1nnc(-c2ccccc2)n1)NCc1cccs1,10%,1,0.2,-46,1,
OCC[C@@H]1C[C@H](O)[C@@H](O)[C@@]2(CCCCO2)O1,9%,-4,1.2,.,.,
Cc1cc(C)cc(C(=O)NN2CCOCC2)c1,-2%,13,-1.1,-34,9,
CCCCn1c(NCc2ccncc2)nc2ccccc21,6%,-9,-0.4,.,9,
O=C1/C(=C/c2cc3c(cc2Cl)OCO3)N2CCC1CC2,-1%,-1,0.0,-15,-5,
CC(c1ccco1)N(C(=O)Nc1ccc(Cl)cc1)c1ccccn1 (stereo not given),6%,-9,2.0,-25,0,
O=C(CCCC(=O)N1CCN(c2cccc(Cl)c2)CC1)c1ccccc1,.,?,2.8,.,.,
Cc1cc(Nc2ccc(C)c(C)c2)n2nc(C)nc2n1,6%,3,1.3,-40,8,Arbovirus anti repeat=-5
CCCc1nnc(NC(=O)CN2CCN(C)CC2)s1,8%,-2,1.2,-20,5,
C=CCSC(=S)NC1CCS(=O)(=O)C1 (stereo not given),4%,24,3.5,-22,1,
NC(=O)CSc1nnc(-c2cc(-c3ccc(Cl)cc3)nc3ccccc23)o1,7%,-12,-1.3,.,0,
O=C(Nc1ccnn1C1CCN(Cc2cc(Cl)ccc2O)CC1)C1CC1,.,2,0.1,.,.,
COc1ccc2c(c1)[nH]c1c(=O)n(CCN3CCCC3)cnc12,0%,1,0.9,-6,6,
COc1ccc(CN2CCN(C3CCSCC3)CC2CCO)c(C)c1C (stereo not given),1%,9,0.1,.,1,
O=[N+]([O-])c1ccc(S(=O)(=O)N/N=C/c2cccs2)cc1,5%,0,-3.5,-3,1,
Cc1ccc(S(=O)(=O)NC(=O)Nc2c(C)n(C)n(-c3ccccc3)c2=O)cc1,-5%,-1,-2.1,1,0,
CCOCCCNC(=O)CS(=O)(=O)Cc1nc(-c2cccc(OC)c2)oc1C,-10%,1,-3.0,-12,9,
COc1ccc(/C=C/c2noc(-c3ccccc3OC(C)=O)n2)cc1,.,1,-0.8,.,.,
Cc1ccc(C2=NS(=O)(=O)N(C)C(C(=O)NC(C)c3ccccc3)=C2)cc1 (stereo not given),.,3,-1.2,.,.,
N#Cc1ccsc1NC(=O)CN1CCN(S(=O)(=O)c2cc(Cl)ccc2Cl)CC1,8%,-3,2.7,2,2,
CN(CC(=O)Nc1ccc(F)cc1)C(=O)CSc1ncccn1,.,-7,-0.5,.,.,
CCCCc1ccc(-c2ccc(C)cc2O)nc1,-7%,0,1.6,-33,3,
CC1CCN(CCCNC(=O)c2nn(C)c3c2CS(=O)(=O)c2ccccc2-3)CC1,.,-3,-0.6,.,.,
O=C(Nc1ccccc1Oc1ccccc1)C1CCCC1,5%,1,-3.4,1,-11,
Cc1ccc(NC(=O)N2CCC(C(N)=O)CC2)cc1,-12%,-7,-0.3,-16,-2,
Cc1cc(N2CCCCC2)nc(NCc2ccccc2)n1,12%,0,6.5,-10,-20,
O=C1C=C(N2CCOCC2)CCC1,9%,-4,-1.4,.,.,
O=C(N/N=C/c1cccnc1)NC12CC3CC(CC(C3)C1)C2,0%,56,-0.9,.,.,
CCN(C(=O)CN1C(=O)S/C(=C\c2cccc(Cl)c2)C1=O)C1CCS(=O)(=O)C1 (stereo not given),.,-1,9.0,.,.,
COc1ccc(OC)c(NC(=O)CNC(=O)Cn2c(C)cc3ccccc3c2=O)c1,-9%,-1,-6.3,-21,4,
CCOC(=O)C1=C(C)NC(=O)C(C(N)=O)C1c1ccccc1 (stereo not given),5%,-7,1.4,-33,7,
S=c1[nH]nc(-c2cc3c(s2)-c2ccccc2CC3)o1,9%,44,-97,-26,2,
O=C(/C=C/Nc1ccc(S(=O)(=O)Nc2cnc3ccccc3n2)cc1)c1ccccc1,-8%,-8,-2.8,.,.,
CC1(C)NC(=O)N(CCCOc2ccc3c(c2)CCC3)C1=O,-3%,-8,-0.2,-30,-8,
CCCCn1c(N)c(N(CC)C(=O)c2cccc(C)c2)c(=O)[nH]c1=O,.,5,2.7,.,.,
CN1\C(=C/C=C/C=C/C=[N+](C)C)C(C)(C)c2ccccc21,5%,.,7.2,.,-8,
CCNC(=O)N1c2ccccc2Sc2ccccc21,8%,1,-1.5,.,1,
CC(C)CN(C(=O)CN1CCC(C)CC1)c1c(N)n(CC(C)C)c(=O)[nH]c1=O,8%,-2,-4.7,.,3,
COc1ccc2nc(Nc3nc(C)c(CCC(C)C)c(=O)[nH]3)nc(C)c2c1,9%,-3,9.2,-12,-10,
COc1ccc(OC)c(NC(=O)CCN2CCCCCC2)c1,-2%,-9,-0.8,-2,5,
O=S(=O)(c1ccc2nc(-c3ccccc3)[nH]c2c1)N1CCN(c2ccc(Cl)cc2)CC1,9%,-4,4.2,-34,-29,
CCOCCCNC(=O)Cn1nc(Cc2ccncc2)c2ccccc2c1=O,.,4,-0.8,.,.,
O=C(NCc1ccc2c(c1)OCO2)C1CCCN1C(=O)Nc1cccc(Cl)c1 (stereo not given),4%,4,0.1,-34,-2,
CC1CCN(C(=O)CSc2nc3cccnc3n2C)CC1,-5%,4,-3.0,-41,3,
Cc1ccc(-c2nc3ncccn3c2NC2CCCCC2)o1,-9%,-2,-0.4,-16,4,
CN1CCN(c2nc(N)c(Br)c(Cl)n2)CC1,-12%,-13,-1.4,.,.,
C=C1C(=O)O[C@H]2C1CC[C@@](C)(O)C13C=CC(C)(C21)C1(C3)C(=O)O[C@@H]2C3C(C)=CCC3[C@](C)(O)C[C@H](OC(C)=O)C21 (stereo not given in full),1%,1,1.4,-22,22,
CCOCCCNC(=O)NC(=O)CN1CCN(S(=O)(=O)c2ccc3c(c2)OCCO3)CC1,2%,-14,-4.1,.,12,
CCc1nc(NCc2ccccn2)c2oc3ccccc3c2n1,-6%,-6,-3.0,.,1,
C=CCc1ccccc1OCCNCCCOC,-7%,2,3.1,-19,-2,
Cc1nn2c3ccccc3n(CCN3CCCCC3)c2nc1=O,-6%,-1,0.6,-28,2,
O=c1cc(-c2ccccc2)nc(/C=C/c2ccccc2)[nH]1,4%,8,2.1,.,.,
CC(C)[C@H](NC(=O)C1CCN(S(=O)(=O)c2ccc(F)cc2)CC1)C(=O)NCc1ccncc1,.,-2,0.8,.,.,
CCOC(=O)C1CCCN(c2ncnc3c2cnn3-c2ccc(OC)cc2)C1 (stereo not given),?,99,-1.8,-28,6,
CN1CCC(OC(=O)c2ccccc2)CC1,.,-2,-1.0,.,.,
# Continued.
SMILES,Mtb H37Rv,Mtb betalactam,RecA intein inh,YopH PTP inh,Arbovirus anti,others
Cc1ccc(S(=O)(=O)NCC(=O)OCc2nnc(-c3ccccc3)o2)cc1,.,-13,0.5,.,.,
N#Cc1nc(COc2ccccc2)oc1NCCN1CCOCC1,7%,-15,-1.9,-36,3,
COc1ccc(/C=C/c2ccc(=O)n(Cc3ccccc3)n2)cc1,3%,-2,0.5,.,-16,
O=C(CN1CCOCC1)N1CCN(c2ccc([N+](=O)[O-])cc2)CC1,1%,-3,1.8,.,2,
CCCNC(=O)C(=O)NCC1CCCN1CC (stereo not given),.,-3,0.5,.,14,
Cc1ccc(-c2nc(CCNC(=O)c3ccco3)cs2)cc1,.,2,2.2,.,.,
O=C(Cn1c(-c2ccccc2)noc1=O)Nc1ccc(S(=O)(=O)N2CCOCC2)cc1,-3%,-2,-0.1,-12,-1,
CCc1[nH]nc(C(=O)NC2CCCc3c2cnn3-c2cc(C)cc(C)c2)c1C (stereo not given),.,-10,2.0,.,.,
COc1ccc(OCCC(=O)OCC(=O)c2ccc[nH]2)cc1,41%,94,-2.6,.,-2,
CCc1c(C(=O)N/N=C/c2ccco2)nnn1-c1nonc1N,.,-1,-2.0,.,.,
CC1=C(C/C(C)=C/c2ccccc2)/C(=C/CO)[C@H](O)[C@](C)(O)C12CC2,1%,-8,4.2,.,.,
CCN(CC)S(=O)(=O)c1cc(NC(=O)C(C)Nc2ccccc2N2CCOCC2)ccc1C (stereo not given),-7%,-8,1.6,.,-8,
Cc1nnsc1C(=O)NNS(=O)(=O)c1ccccc1,-1%,-5,-5.1,13,11,
O=C(CSCc1ccc(Br)cc1)N1CCOCC1,-5%,-4,-0.2,16,7,
COc1ccccc1NC(=O)c1ccccc1S(=O)(=O)c1ccccc1[N+](=O)[O-],7%,11,0.1,.,3,
COc1ccc2cc(C(=O)C3CCCN(C(=O)Cc4c(C)noc4C)C3)ccc2c1 (stereo not given),9%,-15,-1.8,.,0,
COC(=O)Cc1c(C)c2ccc(OCC(=O)NC3CCS(=O)(=O)C3)cc2oc1=O (stereo not given),.,9,0.3,.,.,
CCc1ccc(N2CN(Cc3cccnc3)CNC2=S)cc1,-9%,56,-1.0,.,.,
Cc1cccc(NC(=O)C(Cc2ccccc2)c2nn[nH]n2)c1C (stereo not given),.,-4,0.1,.,.,
COCCCN1C(=O)C(=O)/C(=C(/O)c2ccccc2)C1c1ccc(N(C)C)cc1 (stereo not given),-8%,-4,-3.4,-39,0,
COCCNC(=O)c1c(NC(=O)c2ccc(Br)o2)n(Cc2ccccc2)c2nc3ccccc3nc12,71%,86,6.6,-11,1,
CN(C(=O)COC(=O)c1ccc2ccccc2n1)C1CCS(=O)(=O)C1 (stereo not given),0%,-3,-3.5,.,0,
COc1ccc(CN(C)CC2CCCN(CCc3ccc(F)cc3)C2)c(OC)c1OC (stereo not given),.,3,-3.2,.,.,
Cn1c(=O)c2c(nc(Oc3ccc(-c4ccccc4)cc3)n2C)n(C)c1=O,-2%,6,2.6,-4,0,
O=C(Nc1cccn2ncnc12)c1ccccc1,-10%,-2,0.2,-22,-2,
CCOC(=O)c1cnc2c(C)cccc2c1NCCCN1CCOCC1,.,-6,-4.7,.,.,
COc1ccc(C(=O)N2CCOC2CNC(=O)C(=O)NCc2ccc(Cl)cc2)cc1 (stereo not given),-7%,44,-0.4,.,2,
CC1CCCCC1NC(=O)/C=C/c1nc2ccccc2s1 (stereo not given),7%,3,.,.,12,
Cc1ccc2[nH]c(C(=O)N3CCN(C(c4ccccc4)c4ccccc4)CC3)cc2c1,.,0,-1.7,.,.,
CC(NC(=O)c1ccco1)C(=O)Nc1nc(-c2ccccn2)cs1 (stereo not given),0%,29,2.5,-41,-10,
N#CCCn1c(SCC(=O)NCc2ccco2)nc2ccccc21,-2%,-7,0.5,-62,-4,
CCOC(=O)c1[nH]c(=O)[nH]c1CN(Cc1ccco1)Cc1[nH]c(=O)[nH]c1C(=O)OCC,1%,3,2.7,.,2,
Cc1c(C)[n+](=O)c(-c2ccc(Br)cc2)c(C)n1[O-],-3%,1,-2.7,.,.,
Cc1nn(C(=O)c2cccnc2)c(C)c1Sc1ccc(Br)cc1,9%,7,44*,-14,15,

# No new results follow: an excerpt of the list.
SMILES,Mtb H37Rv,Mtb betalactam,RecA intein inh,YopH PTP inh,Arbovirus anti,others
CC1CCCCC1NC(=O)/C=C/c1nc2ccccc2s1 (stereo not given),7%,3,.,.,12,
Cc1ccc2[nH]c(C(=O)N3CCN(C(c4ccccc4)c4ccccc4)CC3)cc2c1,.,0,-1.7,.,.,
CC(NC(=O)c1ccco1)C(=O)Nc1nc(-c2ccccn2)cs1 (stereo not given),0%,29,2.5,-41,-10,
N#CCCn1c(SCC(=O)NCc2ccco2)nc2ccccc21,-2%,-7,0.5,-62,-4,
CCOC(=O)c1[nH]c(=O)[nH]c1CN(Cc1ccco1)Cc1[nH]c(=O)[nH]c1C(=O)OCC,1%,3,2.7,.,2,
Cc1c(C)[n+](=O)c(-c2ccc(Br)cc2)c(C)n1[O-],-3%,1,-2.7,.,.,
Cc1nn(C(=O)c2cccnc2)c(C)c1Sc1ccc(Br)cc1,9%,7,44*,-14,15,
